Compound activity from PubChem BioAssay.
LANA-H2B inh – blockers of LANA interaction with H2A/H2B – biochemical, FP readout, HTS, primary screen; Protein LANA1 (Human herpesvirus 8 type P (isolate GK18)), Q9QR71; cell-free LANA-H2A/H2B peptide, fluorescence polarization; inhibition, % (concentration not given with the values); 320,000 compounds, 0.6% hits; AID 2629, 2010; in the data active = inhibition mostly above about 10%, no sharp cut-off; inactive = mostly below about 6.7%;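 also: stock transfer was 7.5 nL into about 10 µL; 0% = median of vehicle wells and 100% = median of positive control wells; one replicate is shown; the record names a cut of 25% in any replicate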
A1 inh – caspase 3/7 activation in MEF A1-2A-BIM cells, primary screen, A1 inhibitor project, cell-based, luminescence, HTS; Caspase-Glo 3/7 luminescence, 3 h; percent of clofoctol response, vehicle zero; caspase activation, % (no concentration beside the values); 330,000 compounds, 0.066% hits;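 active = over half of replicate activation scores above 10%, or exactly half above 10 with the replicate mean above 10; inconclusive = replicate mean below 10 yet half the replicates above 10; inactive = over half of replicates below 10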;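 also: wells of about 30 µL received 50 nL stock; many hits fall short of the cut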
B2AR ag – beta2AR agonists driving receptor internalization, primary screen, cell-based, FAP fluorogen, flow cytometry; Beta-2 adrenergic receptor (Homo sapiens), P07550; Am2.2-beta2AR cells; reference of the scale not given here; response, % (test concentration not listed); 340,000 compounds, 0.43% hits;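 active = response above a set limit, near 3 SD of response in nonfluorescent compounds, cut at about 42% in these data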;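 also: stock transfer was 100 nL into about 11 µL; a reference agonist was the positive control; negative values mostly stem from fluorescent compounds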
Target sequence (P07550 whole entry, looked up): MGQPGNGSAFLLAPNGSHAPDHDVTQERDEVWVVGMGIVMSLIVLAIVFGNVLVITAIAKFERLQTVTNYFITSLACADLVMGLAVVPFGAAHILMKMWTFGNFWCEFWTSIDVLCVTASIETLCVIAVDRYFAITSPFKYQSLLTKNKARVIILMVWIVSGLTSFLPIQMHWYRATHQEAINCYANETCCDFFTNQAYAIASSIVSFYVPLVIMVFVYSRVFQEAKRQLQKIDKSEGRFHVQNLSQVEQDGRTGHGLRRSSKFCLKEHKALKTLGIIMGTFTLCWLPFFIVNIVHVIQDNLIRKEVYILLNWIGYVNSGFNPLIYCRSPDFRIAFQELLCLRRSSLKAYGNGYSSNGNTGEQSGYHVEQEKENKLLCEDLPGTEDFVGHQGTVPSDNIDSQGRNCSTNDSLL
Beta cell apopt – inhibitors of cytokine-induced beta cell apoptosis, primary screen, luminescence; protection from apoptosis, % (no concentration beside the values); 300,000 compounds, 0.8% hits; INS-1E cytokine-induced death, ATP luminescence, 48 h; percent of positive-control rescue, neutral wells zero;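 active = all replicates at 75% or more, or half of them and the mean; inconclusive = half reach 75% but not the mean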;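 also: 0% = cytokine-treated negative control wells and 100% = positive control rescue; higher means more ATP so stronger rescue from cytokine killing; wells of about 40 µL received 100 nL stock; the first replicate is given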
T cruzi inh – inhibitors of intracellular T. cruzi growth, primary screen, luminescence, NIH3T3 host cells; T. cruzi beta-gal in NIH3T3, 90 h; inhibition, % (concentration not given with the values); 300,000 compounds, 1.4% hits;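 active = mean inhibition across valid replicates above about 55%, limit read from the data; inconclusive = mean below that limit but half or more replicates reach it; inactive = mean below it, under half of replicates reach it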;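 also: signal also drops with host cell toxicity which is not excluded here; 0% = plate median of DMSO wells and 100% = zero luminescence signal; higher percent means less beta-gal luminescence so fewer parasites; stock transfer was 50 nL into about 50 µL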
Calb FLC – C. albicans growth inhibition with fluconazole, primary screen, CaCi-2 strain, Alamar Blue fluorescence; C. albicans CaCi-2 (fluconazole-resistant clinical isolate) + fluconazole, 48 h; growth inhibition, % (test concentration not listed); 300,000 compounds, 0.57% hits; AID 1979, 2009;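 active = most replicates above 75%; inconclusive = exactly half above 75%; inactive = most below 75%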;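 also: all wells also contain fluconazole at 8 µg/ml as a sub-toxic cotreatment; 0% = median of DMSO wells and 100% = median of geldanamycin control wells; wells of about 8 µL received 7.5 nL stock; the first replicate is given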
UCH37 inh – inhibitors of human UCH37 deubiquitinase, primary screen, biochemical, Ub-AMC cleavage, fluorescence; inhibition, % (concentration not given with the values); purified proteasome/UCH37; 330,000 compounds, 0.33% hits; Ubiquitin carboxyl-terminal hydrolase isozyme L5 (Homo sapiens), Q9Y5K5;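 active = mean of two replicates above 20%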;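 also: 0% = compound-free wells with enzyme and 100% = wells lacking proteasome; stock transfer was 100 nL into about 20 µL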
Target sequence (Q9Y5K5 whole entry, looked up): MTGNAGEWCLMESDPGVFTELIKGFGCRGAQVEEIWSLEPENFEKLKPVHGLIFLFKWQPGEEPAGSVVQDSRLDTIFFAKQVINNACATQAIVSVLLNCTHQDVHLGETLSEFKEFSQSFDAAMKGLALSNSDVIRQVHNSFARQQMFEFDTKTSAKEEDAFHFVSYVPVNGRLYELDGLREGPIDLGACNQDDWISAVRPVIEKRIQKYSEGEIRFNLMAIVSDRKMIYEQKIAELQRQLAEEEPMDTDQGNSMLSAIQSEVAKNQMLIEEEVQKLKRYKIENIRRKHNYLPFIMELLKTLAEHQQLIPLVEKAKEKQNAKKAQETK
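Material: human UCH37 enzyme supplied as purified proteasome complex. Measure: % inhibition of Ub-AMC cleavage fluorescence. Medium: pH 7.4 Tris-HCl (50 mM) with ovalbumin, ATP-MgCl2, DTT. Times: 30 min preincubation with enzyme, 25 min cleavage at room temperature. Detection: AMC fluorescence intensity at 355/460 nm.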
RanGTP-Imp inh – inhibitors of RanGTP-importin-beta interaction, primary screen, biochemical, FRET, CFP-Ran, YFP-importin-beta, homogeneous | cell-free CFP-Ran/YFP-importin-beta FRET ratio | inhibition, % (no concentration beside the values) | 300,000 compounds, 1.1% hits | AID 2216, 2009;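 active = most replicates above 15%; inconclusive = exactly half above 15%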;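 also: 0% = DMSO wells and 100% = Ran loaded with GDP instead of GTP; wells of about 40 µL received 100 nL stock; the first replicate is given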
The depositor's hits bear a star; ? = inconclusive; . = not tested or not shown.

SMILES	LANA-H2B inh	A1 inh	B2AR ag	Beta cell apopt	T cruzi inh	Calb FLC	UCH37 inh	RanGTP-Imp inh
O=C(CN1C(=O)COc2ccccc21)NCCN1CCOCC1	0.8	-0.4	0	5	3	30	3.2	3.7
Cn1c(Cc2ccccc2)nnc1SCc1nc2ccccc2c(=O)[nH]1	-4.1	0.8	-8	1	-11	29	-0.2	2.0
CCOc1ncccc1C(=O)Nc1ccccc1N1CCOCC1	10	?	18	-7	.	.	2.3	.
O=C1Nc2ccccc2Nc2ccc([N+](=O)[O-])cc21	1.9	-1.6	11	0	5	-13	8.5	0.3
O=C(CC12CC3CC(CC(C3)C1)C2)N1CCN(S(=O)(=O)c2cccs2)CC1	0.6	0.3	-4	.	9	-9	-2.9	2.8
N#CC(c1ccc(Cl)cc1)N1CCOCC1 (configuration not stated)	-7.7	-0.3	2	-5	-12	-14	1.6	3.7
CCOc1ccc(S(=O)(=O)NCCC(=O)NC2CCN(Cc3ccccc3)CC2)cc1	0.7	-0.2	-6	-2	44	5	0.7	.
Cn1c(O)c(N=Nc2ccccc2)c2ccccc21	-5.3	1.3	-8	-3	-12	3	2.2	3.6
N#C/C(=C\c1ccccc1Cl)C(=O)NC(=O)Oc1ccccc1	-1.6	1.0	3	.	-12	4	0.5	0.1
CCOc1ccccc1NC(=O)CSc1nnc(CNC(=O)COc2ccc(Cl)cc2)o1	6.0	-0.1	-9	4	1	5	-2.2	-3.8
O=C(COC(=O)CCc1ccc(S(=O)(=O)N2CCOCC2)cc1)Nc1ccccc1[N+](=O)[O-]	3.0	0.3	2	0	.	.	4.6	.
NC(=O)[C@H]1CC2(CC(c3cccc(NC(=O)COc4ccc(Cl)cc4)c3)=NO2)CN1C(=O)C(c1ccccc1)c1ccccc1 (some centres not stated)	4.3	0.3	3	22	50	12	1.2	-2.9
CC(C)(C)NCCCOc1ccc(Cl)cc1C(C)(C)C	-4.3	-0.6	.	10	34	-43	3.8	2.1
CCOc1ccccc1-n1cnc(C#N)c1N	-3.8	-1.2	3	1	2	-7	1.0	1.4
CCOC(=O)C(C)Sc1nc2c([nH]c3ccccc32)c(=O)n1C (configuration not stated)	0.1	-0.3	5	.	24	3	2.8	?
CCOC(=O)Cc1csc(NC(=O)c2ccc([N+](=O)[O-])cc2[N+](=O)[O-])n1	1.5	1.6	-2	-3	36	44	6.7	-1.2
O=C(Cn1ncc2c([nH]c3ccccc32)c1=O)N1CCCCC1	-3.4	0.9	-2	-5	-15	4	1.9	3.1
COc1cccc(C(=O)NCCNC(=O)c2cnccn2)c1	0.6	-0.3	7	1	2	5	3.6	1.4
COCc1ccc(C(=O)N2CCCC(C(=O)c3ccc(SC)cc3)C2)o1 (configuration not stated)	-1.9	0.1	-1	-6	2	0	6.5	-1.4
C=CCn1c(C)cc(-c2csc(NCC)n2)c1C	2.8	-0.4	14	1	28	2	2.1	-2.8
COC(=O)c1ccc(CSc2nncn2C)cc1	5.2	0.0	4	-8	-2	-22	-0.5	-3.9
Cc1cc(OCC(=O)N(C)c2c(N)n(Cc3ccccc3)c(=O)[nH]c2=O)c(C(C)C)cc1Cl	1.7	-0.3	-12	-4	13	.	0.4	-1.2
COc1ccc(N2CCN(CC(=O)NC(C)c3ccccc3)CC2)cc1 (configuration not stated)	0.2	0.5	4	4	5	6	1.7	2.4
CCN(c1ccc(C)cc1)S(=O)(=O)c1nnc(NC(=O)c2ccco2)s1	-7.0	0.0	26	-4	-29	-7	7.4	2.9
CCSc1nnc(NC(=O)C2CSC3(C)CCC(=O)N23)s1 (configuration not stated)	-3.3	2.0	11	-2	.	.	1.6	.
COc1ccc(-c2nc3ccc(C(=O)NCCCN4CCOCC4)cc3nc2-c2ccc(OC)cc2)cc1	-5.0	0.3	-4	0	25	28	-37	21*
O=C(NCc1ccccn1)c1cccc(NS(=O)(=O)c2ccccc2)c1	-2.7	-1.6	-1	0	-1	.	1.7	-3.6
COc1cccc(CNc2ccc(C)c(Cl)c2)c1	-14	-0.4	-5	8	2	-4	2.7	0.9
Cc1nn(-c2ccccc2Cl)c2sc(C(=O)Nc3nnc(C4CC4)s3)cc12	-4.8	0.1	2	5	17	-12	.	-2.9
C=CCSc1nnc(NC(=O)CSc2nc(CCC)cc(=O)[nH]2)s1	-3.5	-0.6	-4	-4	-8	6	1.3	3.7
C/C(CC(=O)NC(C)(C)C)=N\NC(N)=S	4.1	-0.5	-1	.	10	-4	.	-0.9
CC(C)(C)CC(=O)Nc1nnc(SCC(=O)Nc2ccccc2F)s1	0.0	0.0	0	-8	-2	-7	-1.7	0.9
O=C(c1cnccn1)N1CCCC(N2CCN(c3cccc(Cl)c3)CC2)C1 (configuration not stated)	1.6	0.4	-2	4	15	4	3.1	2.5
CC(=O)c1ccc(N2CCN(c3ncccn3)CC2)cc1	10.0	-0.5	0	5	-6	2	6.9	8.2
COC(=O)C(C)N(C(=O)c1ccc(Cl)cc1)c1c(C)cccc1C (configuration not stated)	-0.2	-0.7	10	4	8	21	-0.3	-3.7
CCOC(=O)c1c(NC(=O)C2c3ccccc3Oc3ccccc32)sc(C(=O)N(CC)CC)c1C	1.5	-0.1	11	.	41	5	1.8	-2.6
Cc1cc(C)c(S(=O)(=O)n2c([N+](=O)[O-])cnc2C)cc1C	-2.5	-2.4	-2	-1	-25	10	8.4	3.6
COC(=O)c1ccc(NC(=O)CCN2CCN(c3ccccc3)CC2)cc1	2.4	3.7	-12	1	9	2	.	2.1
CC1=C(C(=O)OC2CCCCC2)C(c2ccccc2)NC(=O)N1 (configuration not stated)	0.4	0.3	-7	-3	5	-1	4.8	-2.3
CCOc1ccc(NC(=O)c2ccc(OC)cc2)cc1	-1.2	-3.0	2	0	-1	-9	2.1	-0.8
O=C1NC[C@@H](c2ccccc2)OC(=O)[C@@H](Cc2ccc(F)cc2)CC/C=C/C[C@H]1CC(=O)N(CCO)Cc1ccccc1	1.2	-0.5	16	9	.	.	1.6	.
Nc1nc(SCC(=O)c2ccc(F)cc2)n[nH]1	6.1	1.6	-5	-8	10	?	-0.2	-0.9
CCNC(=O)COC(=O)c1csc2c1CCCC2	1.6	0.2	-4	-7	-7	-6	1.8	-5.3
O=C(OCC(=O)c1ccc[nH]1)c1cncc(Br)c1	4.4	-0.7	0	-5	.	.	2.8	.
O=C(CCCN1C(=O)/C(=C\c2cccs2)SC1=S)Nc1ccccn1	6.7	0.1	-15	4	18	?	5.7	-2.1
CCOC(=O)COc1c(OC)cc(Cl)cc1C1Nc2ccccc2C(=O)N1c1ccccc1 (configuration not stated)	-0.6	-0.1	6	-8	34	-12	-115	-3.6
COC(=O)c1ccccc1N(Cc1ccccc1)S(C)(=O)=O	-4.4	-0.1	8	5	-9	-2	0.0	1.4
O=C(NCCN1CCOCC1)c1ccc2c(c1)N(Cc1ccc(Cl)cc1)C(=O)CS2	0.1	0.3	3	2	7	-6	1.7	-0.1
O=C(Nc1ccccc1)c1cn2ccccc2n1	7.6	-7.4	-18	14	-1	-1	0.2	-2.0
Cc1ccc(C)c(NC(=S)NC(NC(=O)OCc2ccccc2)C(Cl)(Cl)Cl)c1 (configuration not stated)	-0.1	-0.8	6	2	17	-3	1.4	11
COCCCNC(=O)c1ccc(CNS(=O)(=O)c2ccc(NC(C)=O)cc2)cc1	-0.6	1.2	-2	.	.	.	2.3	.
COc1cc2c(C(=O)N(C)c3cc(Cl)ccc3OC)cn(C)c(=O)c2cc1OC	-2.5	-0.8	2	-9	-3	1	2.8	-0.2
c1ccc(-c2onc3cc4c(cc23)OCCO4)cc1	-2.9	-3.9	1	5	-12	-9	1.0	6.3
COCCn1c(=O)c2c(nc3n2CCCN3CCc2ccccc2)n(C)c1=O	0.7	0.2	-5	-5	-6	5	0.9	-2.6
COc1cccc(/C=N/Nc2nc(N3CCCC3)nc(N3CCCC3)n2)c1O	-6.1	0.2	17	7	9	-7	.	-0.3
NS(=O)(=O)c1ccc(CNC(=O)C2CCCCC2)cc1	-4.1	0.5	9	-6	-6	-5	1.9	2.5
CNc1nc(Nc2ccc(C)c(Cl)c2)c2cnn(C)c2n1	-1.6	-0.9	17	19	30	8	-6.2	?
Cc1ccc(S(=O)(=O)N2CCCNCC2)cc1	1.5	-0.7	-3	2	11	-2	4.3	0.5
O=C(CSc1nc(=O)n(CCN2CCOCC2)c2c1CCCC2)Nc1ccc([N+](=O)[O-])cc1	0.3	0.0	-1	8	22	0	9.4	0.8
Nc1c(S(=O)(=O)c2cccs2)c2nc3ccccc3nc2n1Cc1ccc2c(c1)OCO2	0.8	0.4	6	3	42	12	-146	3.5
(continued)
SMILES	LANA-H2B inh	A1 inh	B2AR ag	Beta cell apopt	T cruzi inh	Calb FLC	UCH37 inh	RanGTP-Imp inh
CC(=O)Oc1ccc(C(=O)Nc2cccc3c2CCCC3)cc1	2.5	-0.7	-6	0	-13	-35	2.0	-2.4
C/C(=N\NC(N)=S)c1ccc2c(c1)OCCO2	-7.7	0.3	0	-1	14	-5	.	2.1
CCOc1c(Br)cc(/C=C(\C#N)C(=O)NC2CC2)cc1OC	0.0	0.6	-1	-6	-9	2	4.4	-1.2
Cc1c(C(=O)N2CCCCCC2)c(S(=O)(=O)Nc2cccc(F)c2)c(C)n1C	5.2	1.1	2	-3	0	-3	2.1	-1.1
CCCC1=C(C(=O)OCC)C(c2cccnc2)n2nc(C)nc2N1 (configuration not stated)	-0.6	0.3	-7	-3	-8	0	4.1	2.2
CCCNC(=O)c1ccc(Cl)cc1Cl	1.9	0.6	6	-3	4	1	.	0.5
CCN(Cc1ccncc1)C(=S)NCc1ccccc1	4.6	-0.2	-7	-7	-17	14	-0.8	-0.2
COc1cc(C)ccc1OCc1cc(C(=O)NCCN2CCOCC2)no1	0.8	-3.0	3	-2	-5	-3	0.4	-1.9
O=C(Nc1ccc(NC(=O)c2sc3ccccc3c2Cl)cc1)c1ccco1	-0.6	-0.3	-4	-3	-9	2	.	6.4
O=C(OCC(=O)N1CCOCC1)c1ccc(Br)cc1	-3.0	-1.6	7	-9	3	1	1.0	-0.1
Cc1ccc(/C=N/n2c(C3CCCCC3)n[nH]c2=S)o1	0.8	0.2	13	2	15	3	.	5.3
C[C@@H]1CCC(=O)N(CC[C@H](Sc2ccccc2)c2ccccc2)CC1	-3.8	-0.3	5	3	11	-13	0.2	3.8
